Calb FLC: C. albicans growth inhibition with fluconazole, primary screen, CaCi-2 strain, Alamar Blue fluorescence; growth inhibition, % (concentration not given with the values); actives 0.57% (n = 300,000); C. albicans CaCi-2 (fluconazole-resistant clinical isolate) + fluconazole, 48 h; AID 1979, 2009;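 active = most replicates above 75%; inconclusive = exactly half above 75%; inactive = most below 75%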;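 note: all wells also contain fluconazole at 8 µg/ml as a sub-toxic cotreatment; 0% = median of DMSO wells and 100% = median of geldanamycin control wells; wells of about 8 µL received 7.5 nL stock; the first replicate is given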
T cruzi inh: inhibitors of intracellular T. cruzi growth, primary screen, luminescence, NIH3T3 host cells. T. cruzi beta-gal in NIH3T3, 90 h. inhibition, % (test concentration not listed). actives 1.4% (n = 300,000). AID 1885, 2009;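 active = mean inhibition across valid replicates above about 55%, limit read from the data; inconclusive = mean below that limit but half or more replicates reach it; inactive = mean below it, under half of replicates reach it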;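 note: signal also drops with host cell toxicity which is not excluded here; 0% = plate median of DMSO wells and 100% = zero luminescence signal; higher percent means less beta-gal luminescence so fewer parasites; stock transfer was 50 nL into about 50 µL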
A1 inh: caspase 3/7 activation in MEF A1-2A-BIM cells, primary screen, A1 inhibitor project, cell-based, luminescence, HTS | Caspase-Glo 3/7 luminescence, 3 h; percent of clofoctol response, vehicle zero | caspase activation, % (concentration not given with the values) | actives 0.066% (n = 330,000) | AID 2462, 2010;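 active = over half of replicate activation scores above 10%, or exactly half above 10 with the replicate mean above 10; inconclusive = replicate mean below 10 yet half the replicates above 10; inactive = over half of replicates below 10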;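 note: wells of about 30 µL received 50 nL stock; many hits fall short of the cut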
Beta cell apopt: inhibitors of cytokine-induced beta cell apoptosis, primary screen, luminescence; INS-1E cytokine-induced death, ATP luminescence, 48 h; percent of positive-control rescue, neutral wells zero; protection from apoptosis, % (concentration not given with the values); actives 0.8% (n = 300,000); AID 435005, 2010;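 active = all replicates at 75% or more, or half of them and the mean; inconclusive = half reach 75% but not the mean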;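 note: 0% = cytokine-treated negative control wells and 100% = positive control rescue; higher means more ATP so stronger rescue from cytokine killing; wells of about 40 µL received 100 nL stock; the first replicate is given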
RanGTP-Impb inh: inhibitors of RanGTP-importin-beta interaction, primary screen, biochemical, FRET, CFP-Ran, YFP-importin-beta, homogeneous; Ran GTPase (GTP-bound) - importin-beta complex; cell-free CFP-Ran/YFP-importin-beta FRET ratio; inhibition, % (concentration not given with the values); actives 1.1% (n = 300,000); AID 2216, 2009;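 active = most replicates above 15%; inconclusive = exactly half above 15%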;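 note: 0% = DMSO wells and 100% = Ran loaded with GDP instead of GTP; wells of about 40 µL received 100 nL stock; the first replicate is given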
LANA-H2B inh: blockers of LANA interaction with H2A/H2B – biochemical, FP readout, HTS, primary screen; actives 0.6% (n = 320,000); inhibition, % (concentration not given with the values); cell-free LANA-H2A/H2B peptide, fluorescence polarization; Protein LANA1 (Human herpesvirus 8 type P (isolate GK18)), Q9QR71; in the data active = inhibition mostly above about 10%, no sharp cut-off; inactive = mostly below about 6.7%;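 note: stock transfer was 7.5 nL into about 10 µL; 0% = median of vehicle wells and 100% = median of positive control wells; one replicate is shown; the record names a cut of 25% in any replicate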
Target sequence (Q9QR71 whole entry, looked up): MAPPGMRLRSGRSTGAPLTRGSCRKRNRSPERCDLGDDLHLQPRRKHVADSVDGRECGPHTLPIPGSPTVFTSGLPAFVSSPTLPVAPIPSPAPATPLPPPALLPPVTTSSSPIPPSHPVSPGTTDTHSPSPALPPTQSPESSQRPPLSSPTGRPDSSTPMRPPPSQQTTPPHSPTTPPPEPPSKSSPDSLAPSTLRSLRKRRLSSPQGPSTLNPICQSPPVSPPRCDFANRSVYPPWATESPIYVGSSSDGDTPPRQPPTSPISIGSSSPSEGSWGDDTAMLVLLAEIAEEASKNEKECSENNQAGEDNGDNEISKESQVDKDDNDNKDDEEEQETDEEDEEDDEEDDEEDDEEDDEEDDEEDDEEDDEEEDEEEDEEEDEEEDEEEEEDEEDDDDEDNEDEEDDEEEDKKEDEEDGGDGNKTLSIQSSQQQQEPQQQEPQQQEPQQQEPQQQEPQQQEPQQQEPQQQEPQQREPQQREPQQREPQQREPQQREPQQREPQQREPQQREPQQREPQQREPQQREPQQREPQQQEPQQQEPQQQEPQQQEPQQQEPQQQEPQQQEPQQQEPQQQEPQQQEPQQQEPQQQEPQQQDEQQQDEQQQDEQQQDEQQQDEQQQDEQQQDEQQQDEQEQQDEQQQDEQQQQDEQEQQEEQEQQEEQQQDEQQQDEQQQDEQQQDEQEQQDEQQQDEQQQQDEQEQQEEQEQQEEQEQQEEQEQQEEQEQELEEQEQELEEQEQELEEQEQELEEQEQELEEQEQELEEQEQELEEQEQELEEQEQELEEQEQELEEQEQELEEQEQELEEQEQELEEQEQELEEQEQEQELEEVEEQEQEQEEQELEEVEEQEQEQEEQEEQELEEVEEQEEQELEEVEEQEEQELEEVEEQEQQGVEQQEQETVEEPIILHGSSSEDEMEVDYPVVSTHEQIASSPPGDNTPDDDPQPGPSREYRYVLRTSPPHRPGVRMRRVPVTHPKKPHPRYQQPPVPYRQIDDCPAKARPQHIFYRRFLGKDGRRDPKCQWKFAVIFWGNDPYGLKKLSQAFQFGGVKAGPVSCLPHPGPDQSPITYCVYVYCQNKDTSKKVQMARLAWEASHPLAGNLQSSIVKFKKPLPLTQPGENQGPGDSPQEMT
UCH37 DUB inh: inhibitors of human UCH37 deubiquitinase, primary screen, biochemical, Ub-AMC cleavage, fluorescence; purified proteasome/UCH37; Ubiquitin carboxyl-terminal hydrolase isozyme L5 (Homo sapiens), Q9Y5K5; inhibition, % (concentration not given with the values); AID 588478, 2011; actives 0.33% (n = 330,000);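 active = mean of two replicates above 20%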;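 note: 0% = compound-free wells with enzyme and 100% = wells lacking proteasome; stock transfer was 100 nL into about 20 µL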
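assay system = human UCH37 enzyme supplied as purified proteasome complex | amount = proteasome at 0.15 nM in the dispensed enzyme solution | schedule = 30 min compound-proteasome preincubation then 25 min substrate reaction, room temperature | measured by = fluorescence, ex 355 nm, em 460 nm | benchmarks = no-proteasome wells (full inhibition) and compound-free wells (no inhibition)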
B2AR ag: beta2AR agonists driving receptor internalization, primary screen, cell-based, FAP fluorogen, flow cytometry; Am2.2-beta2AR cells; reference of the scale not given here; response, % (concentration not given with the values); Beta-2 adrenergic receptor (Homo sapiens), P07550; AID 504454, 2011; actives 0.43% (n = 340,000);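 active = response above a set limit, near 3 SD of response in nonfluorescent compounds, cut at about 42% in these data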;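 note: stock transfer was 100 nL into about 11 µL; a reference agonist was the positive control; negative values mostly stem from fluorescent compounds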
An asterisk follows results filed as active; ? = inconclusive; nt = no result given. Random draw from the library. About 4.3% of those tested had a hit in this group.

molecule,Calb FLC,T cruzi inh,A1 inh,Beta cell apopt,RanGTP-Impb inh,LANA-H2B inh,UCH37 DUB inh,B2AR ag
O=C(O)C1c2ccccc2C(=O)N(Cc2ccc(F)cc2)C1c1ccncc1 (configuration not stated),3,-4,-0.1,-6,-3.3,3.8,2.6,-1
CCOC(=O)c1sc(=S)n(CC)c1N,-2,-5,0.0,-7,-1.3,2.0,52*,-3
COc1ccccc1NC(=O)Cc1nnc(SCC(=O)c2ccccc2)n1C,-3,25,0.1,-2,4.8,1.3,1.1,-11
COc1ccc(/C=C/C(=O)c2cc(Br)ccc(=O)c2O)cc1,nt,nt,-1.2,1,nt,182*,8.1,25
N#C/C(=C\c1c(N2CCCCC2)nc2ccccn2c1=O)S(=O)(=O)c1ccccc1,-1,-14,-0.2,-19,3.4,2.8,1.5,-10
Cc1cccc(NC(=O)CCNS(=O)(=O)c2cccc3nsnc23)c1,-6,-5,1.9,0,1.7,2.7,0.0,-1
O=C(C[n+]1cccc2ccccc21)c1ccc(Cl)cc1,-3,20,0.3,-3,-6.1,1.5,-1.3,-10
Cc1ccc(NC(=O)CSc2nc(-c3ccco3)nc3cc(=O)[nH]n23)c(Cl)c1,1,-13,0.6,-5,5.2,-3.4,5.1,8
Cc1ccc(C(=O)CNc2ccc(Br)cc2)cc1,4,-16,-0.4,nt,6.3,0.4,2.5,5
CN1/C(=C\C(=O)COC(=O)C2COc3ccccc3O2)C(C)(C)c2ccccc21 (configuration not stated),-4,3,0.7,nt,-0.3,-11,-9.4,5
O=C(c1ccccc1CCc1ccccc1)N1CCOCC1,-19,-14,0.5,1,-2.1,1.2,4.1,8
COCCn1c(C)cc(C(=O)COC(=O)c2cccnc2SC)c1C,nt,nt,-14,11,nt,-4.6,0.3,-6
O=C(O)CSCC(=O)N1CCN(S(=O)(=O)c2ccccc2)CC1,10,-22,0.3,-3,-3.6,-1.0,3.6,-5
Cc1ccc(-c2nnn(CC(=O)N(Cc3cccs3)C(C(=O)NC(C)(C)C)c3ccco3)n2)o1 (configuration not stated),-17,11,-0.8,5,?,1.1,-1.0,-1
CC/C(=N\Nc1ccc([N+](=O)[O-])cc1[N+](=O)[O-])c1ccc(O)cc1,-3,10,1.5,6,-2.3,4.1,nt,-8
COc1cc(CNCCc2ccc(F)cc2)ccc1OCc1ccc(Cl)nc1,-3,40,0.4,5,-1.7,-0.2,-0.6,24
CCOc1cccc(CN2CCCC(C(=O)Nc3ccc(-c4ccn[nH]4)cc3)C2)c1O (configuration not stated),-7,3,-0.2,-9,2.4,-3.5,-0.7,6
O=S(=O)(c1ccc(F)cc1)N1CCN(C(=S)NCc2ccco2)CC1,-20,11,0.1,-11,0.4,5.2,-1.9,-2
COc1ccc(/C=N/NC(=O)c2cc[n+]([O-])cc2)cc1,-13,-19,-0.3,-1,3.3,8.7,nt,4
CN(CC(=O)Nc1ccc(F)c(F)c1F)C(=O)c1n[nH]c(=O)c2ccccc12,nt,nt,0.6,-3,nt,3.1,2.2,-4
CC(C)NCCOCCOc1ccc(Cl)cc1Br,-21,50,0.7,-8,-0.9,1.3,3.6,4
COc1ccc(NC(=O)C/C(C)=N/NC(=O)c2cnccn2)cc1Cl,0,-16,0.1,1,-0.4,-2.0,nt,-5
COc1ccc(S(=O)(=O)N2CCCCC2)cc1NC(=O)c1cccs1,-18,3,1.3,4,3.2,2.6,-5.2,2
O=S(=O)(c1cccc(F)c1)N1CCN(Cc2ccc3c(c2)OCO3)CC1,-55,-4,0.5,-2,5.7,-5.0,2.2,2
CSc1ccc(/C=C/C(=O)OCC(=O)NC(C)C)cc1,-3,-5,0.0,-5,3.6,0.2,-257,-8
O=C(CCN1C(=O)C2C3C=CC(C4CC34)C2C1=O)Nc1ccc(Cl)cc1O (configuration not stated),nt,-11,0.3,-2,nt,-1.9,-1.3,27
C[C@H](CO)N1C[C@H](C)[C@@H](CN(C)CC2CCCCC2)Oc2c(NS(=O)(=O)c3cn(C)cn3)cccc2C1=O,nt,nt,0.1,-9,nt,-6.9,2.7,-4
Cc1cc(C)c(NC(=O)CCCOC(=O)C2=COCCO2)c(C)c1,-20,-8,-0.3,-1,-0.3,-2.2,3.4,8
CCc1ccc(OCC(=O)NNC(=O)C2CCC2)cc1,-1,-11,0.3,-7,0.4,-3.3,3.1,-6
Cc1ccoc1C(=O)N1CCCC(CCC(=O)N2CCN(c3ccccn3)CC2)C1 (configuration not stated),23,22,-0.4,5,-0.1,4.9,3.3,6
O=C(NC(=S)NCc1cccnc1)c1ccc([N+](=O)[O-])cc1,-4,-12,-0.3,-6,2.2,-3.3,-0.1,-7
O=C(Cn1nnc(-c2cccs2)n1)NNC(=O)c1ccccc1Cl,0,2,-0.6,2,4.2,-1.9,2.3,2
COc1cc(OC)c(C(=O)NCCCN2CCOCC2)cc1OC,8,1,0.2,0,2.7,2.3,0.7,5
O=C(NCCC1=CCCCC1)c1cc(COc2c(F)cccc2F)on1,16,13,-0.3,3,-2.1,4.1,-1.7,10
Cn1cnnc1SCC(=O)Nc1ccccc1Oc1ccccc1,-7,1,0.2,-3,-1.4,-4.1,2.0,2
CCOC(=O)c1cc2sccc2n1CC(=O)N1CCc2ccccc21,-5,-16,-0.1,13,-0.1,12,0.2,-3
CCOC(=O)c1cnc(SCc2nc(N)nc(Nc3ccc(C)cc3)n2)nc1N,0,7,-0.1,nt,-0.5,-0.6,-0.7,-11
Cc1cc(Nc2ccc(F)cc2Cl)n2ncnc2n1,4,-16,-0.6,2,-4.8,5.9,1.6,-3
COc1ccc2nc(NC(=O)CSc3nccc(C)n3)sc2c1,7,-2,-0.5,11,1.6,-0.8,2.2,-2
CCn1cc(C(=O)NC2CCc3ccccc32)c(=O)c2ccc(C)nc21 (configuration not stated),-3,-7,nt,nt,-0.2,nt,1.0,nt
Cc1ccccc1NC(=O)CSc1nc2c(c(=O)n(C)c(=O)n2C)n1C,40,-6,0.0,-3,3.0,-3.4,4.1,0
Cc1ccc(C)c(NC(=O)CSc2n[nH]c(-c3ccccn3)n2)c1,51,-22,-0.4,59,?,6.0,7.2,-2
O=C(Cn1nc(-c2ccccc2)c2ccccc2c1=O)NCC1CCCO1 (configuration not stated),3,-14,0.7,-1,-0.7,1.7,1.2,-8
Oc1ccccc1C(Nc1nccs1)c1ccc2cccnc2c1O (configuration not stated),95*,63*,-0.6,87*,3.4,-5.6,-2.0,8
Cc1[nH]ccc(=O)c1Oc1ncc(C(F)(F)F)cc1Cl,-8,-2,-0.2,-7,6.6,-8.8,3.3,-1
CC(=O)N1CCN(c2ccc(NCc3ccc(C)cc3)cc2)CC1,-2,-16,0.1,9,1.9,0.3,-0.2,1
Cc1c(C(=O)N(Cc2ccc(F)cc2)C2CCS(=O)(=O)C2)oc2ccccc12 (configuration not stated),11,9,-0.4,0,-1.4,5.3,4.3,-3
CCOC(=O)N1CCN(C(=O)c2ccc3nc(SCc4ccc(F)cc4)n(C)c3c2)CC1,-2,25,0.0,-1,0.3,-5.4,3.6,11
CCOc1ccc(N2C(=O)CC(N3CCN(c4ccc(Cl)cc4)CC3)C2=O)cc1 (configuration not stated),-5,-12,-0.2,-2,4.8,2.5,7.6,7
CCc1nnc(NC(=O)CSc2nnc(-c3ccoc3C)n2-c2ccccc2)s1,4,9,-0.4,-1,5.2,0.0,3.0,1
Cc1cc(Br)ccc1OCCn1ccnc1,-10,48,0.5,-1,2.2,7.4,2.8,-16
O=C(CCN1C(=O)/C(=C/c2ccccc2Cl)SC1=S)NCCCN1CCOCC1,-5,-14,-0.2,-11,-0.2,-5.5,4.9,-8
Cc1cccc(OCc2ccc(C(=O)N3CCOCC3)o2)c1,2,-3,0.9,-2,2.5,5.3,5.2,-2
CCOC(=O)C1(Cc2ccc(OC)cc2)CCN(C(=O)c2sc(C)nc2C)CC1,-13,-8,0.5,-1,6.5,5.3,7.7,5
COc1cc(CCC(=O)NNC(=O)c2cccc(Cl)c2)cc(OC)c1OC,-6,3,0.1,-3,-9.1,2.8,5.4,4
Cc1ccc(O)c(C(=O)c2cnn(-c3ccc(S(=O)(=O)N4CCOCC4)cc3[N+](=O)[O-])c2)c1,32,11,0.2,nt,0.4,3.2,0.6,11
CCCc1cc(=O)[nH]c(SCC(=O)NC2CC2)n1,nt,nt,-1.7,-4,nt,-5.8,0.3,2
CCOc1ccc(NC(=O)c2oc3ccccc3c2NC(=O)CC)cc1,31,20,0.6,0,-5.0,-0.8,nt,nt
COc1ccc(C(=O)Nc2cccc(-c3ccc4nncn4n3)c2)cc1OC,-4,-6,0.4,7,-0.9,-5.6,-8.2,7
Cc1ccc(C)c(Cn2cnc3c(cnn3C(C)(C)C)c2=O)c1,6,12,-0.1,-1,5.7,6.3,-1.3,-1
Cn1nc(C(=O)N2CCN(c3ccccn3)CC2)c2ccccc2c1=O,4,0,0.8,-5,-3.4,0.1,4.0,-2
Nc1nnc(SCc2ccc3c(c2)OCO3)s1,2,8,-2.6,-10,-12,-5.5,2.1,9
O=C(CCN1CCN(C/C=C/c2ccccc2)CC1)Nc1cccc(F)c1,-3,58*,0.3,-3,-4.2,4.2,2.6,-5
